Bioassay records as filed in PubChem.
NPYLR7 ag = agonists of mosquito NPYLR7 receptor, primary screen, cell-based, Aedes aegypti, calcium fluorescence, mosquito biting behavior. HEK293T NPYLR7/Galpha15, GCaMP6s calcium fluorescence. activation, % at 10 µM. 0.15% of 270,000 active; in the data active = activation above about 40%;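 note: 0% = vehicle and 100% = reference agonist at the receptor; some compounds past the cut are filed as inactive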
NPYLR7 ag max-min = recorded beside NPYLR7 ag, whose call it bears; activation, %; measured here: Max-Min RFU normalised activation; some inactives read as strong as hits;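 span of the calcium signal over five minutes; 0% = vehicle and 100% = native peptide agonist; compound fluorescence can raise it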
* = called active by the depositor.

A first look:
SMILES | NPYLR7 ag | NPYLR7 ag max-min
Fc1ccc(F)c(CN2CCCn3cccc3C2c2ccccc2F)c1 (stereo not drawn) | 13.8 | 17.8
CC(c1nc(N)nc(N(C)C)n1)N1CCc2sccc2C1 (stereo not drawn) | 5.6 | 3.5
Oc1oc(-c2ccc(Cl)cc2)nc1C=Nc1cccc(F)c1 | -4.4 | -7.6
COc1cccc(-c2cc(-c3ccc(C(=O)NCCOC(C)C)cc3)[nH]n2)c1 | 19.5 | 11.6
COc1ccccc1Nc1nc(N)nc(CSCC(=O)Nc2ccccc2)n1 | -1.0 | 8.3
Cc1cc(OCc2csc(C(C)C)n2)nn1C | -0.1 | 0.0
CCN1CC(CN(C)Cc2cn(-c3ccccc3)nc2-c2ccc(OC)cc2F)CC1=O (stereo not drawn) | 3.3 | 0.2
CC1C(=O)N(c2ccc3c(c2)OCO3)CCN1C(=O)Cc1ccccc1 (stereo not drawn) | 27.5 | 18.6
Cc1cc(Nc2ccc(S(N)(=O)=O)cc2)c2ccc(C(F)(F)F)cc2n1 | 4.5 | 3.7
COc1ccc(C2c3c(n(C)c(=O)n(C)c3=O)N=C3COC(=O)C32)cc1OC (stereo not drawn) | 4.9 | 4.7
CCCc1noc(-c2ccc([N+](=O)[O-])cc2)n1 | -0.5 | -7.3
CCOC(=O)c1nn(CC2CC2)c2c1CN(C(=O)C(C)Oc1ccc(Cl)cc1C)CC2 (stereo not drawn) | 3.1 | -4.6
CC1=NN(CC(=O)c2ccc(F)cc2)c2nc3c(c(=O)n(C)c(=O)n3C)n2C1C (stereo not drawn) | 7.7 | 2.1
CC(NC(=O)c1cc(-c2ccc(F)cc2)nn1-c1ccccc1Cl)c1ccccc1 (stereo not drawn) | 4.6 | 6.4
CNC(=O)CN(C)C(=O)C1(c2ccccc2)CCN(C(C)=O)CC1 | 9.6 | 3.6
COc1ccc2nc(C)cc(N3CCN(C)CC3)c2c1 | 5.5 | 2.8

Main list, from the start:
SMILES | NPYLR7 ag | NPYLR7 ag max-min
Fc1ccc(F)c(CN2CCCn3cccc3C2c2ccccc2F)c1 (stereo not drawn) | 13.8 | 17.8
CC(c1nc(N)nc(N(C)C)n1)N1CCc2sccc2C1 (stereo not drawn) | 5.6 | 3.5
Oc1oc(-c2ccc(Cl)cc2)nc1C=Nc1cccc(F)c1 | -4.4 | -7.6
COc1cccc(-c2cc(-c3ccc(C(=O)NCCOC(C)C)cc3)[nH]n2)c1 | 19.5 | 11.6
COc1ccccc1Nc1nc(N)nc(CSCC(=O)Nc2ccccc2)n1 | -1.0 | 8.3
Cc1cc(OCc2csc(C(C)C)n2)nn1C | -0.1 | 0.0
CCN1CC(CN(C)Cc2cn(-c3ccccc3)nc2-c2ccc(OC)cc2F)CC1=O (stereo not drawn) | 3.3 | 0.2
CC1C(=O)N(c2ccc3c(c2)OCO3)CCN1C(=O)Cc1ccccc1 (stereo not drawn) | 27.5 | 18.6
Cc1cc(Nc2ccc(S(N)(=O)=O)cc2)c2ccc(C(F)(F)F)cc2n1 | 4.5 | 3.7
COc1ccc(C2c3c(n(C)c(=O)n(C)c3=O)N=C3COC(=O)C32)cc1OC (stereo not drawn) | 4.9 | 4.7
CCCc1noc(-c2ccc([N+](=O)[O-])cc2)n1 | -0.5 | -7.3
CCOC(=O)c1nn(CC2CC2)c2c1CN(C(=O)C(C)Oc1ccc(Cl)cc1C)CC2 (stereo not drawn) | 3.1 | -4.6
CC1=NN(CC(=O)c2ccc(F)cc2)c2nc3c(c(=O)n(C)c(=O)n3C)n2C1C (stereo not drawn) | 7.7 | 2.1
CC(NC(=O)c1cc(-c2ccc(F)cc2)nn1-c1ccccc1Cl)c1ccccc1 (stereo not drawn) | 4.6 | 6.4
CNC(=O)CN(C)C(=O)C1(c2ccccc2)CCN(C(C)=O)CC1 | 9.6 | 3.6
COc1ccc2nc(C)cc(N3CCN(C)CC3)c2c1 | 5.5 | 2.8
Cc1nc(C(=O)N(C)Cc2cc(-c3cccs3)n[nH]2)cs1 | -5.0 | -6.3
CCCCn1c(C)cn2c3c(=O)n(Cc4ccc(F)cc4)c(=O)n(C)c3nc12 | 3.1 | 3.9
CC(NC(=O)c1cnn2c1CCCC2)c1cn2ccsc2n1 (stereo not drawn) | -0.5 | -1.5
CS(=O)(=O)N1CCCC(C(=O)Nc2nnc(-c3cc(Cl)sc3Cl)o2)C1 (stereo not drawn) | 4.6 | 5.2
CC(C(=O)NCc1ccc2c(c1)OCO2)N1CCc2ccccc21 (stereo not drawn) | 9.5 | 9.4
CC12CC3CC(C)(C1)CC(C(=O)N1CC[C@H](O)C1)(C3)C2 | 6.0 | -0.5
C1CCN2C[C@@H]3C[C@@H](CN4CCCC[C@@H]34)[C@H]2C1 | -2.6 | -8.3
COc1ccccc1C1(CC(=O)N2CCN(c3cnccn3)CC2)CC(=O)N(C2CCCC2)C1=O (stereo not drawn) | 9.9 | 4.5
COc1cccc(-n2c(=O)c3ccccc3n(C(C)C(=O)NCc3ccccn3)c2=O)c1 (stereo not drawn) | -4.4 | 3.3
O=c1[nH]c2ccc(NS(=O)(=O)c3ccc(F)cc3)cc2[nH]1 | 12.9 | 5.2
CN(C)C(=O)CNC(=O)/C=C/c1ccnn1C | 3.6 | 2.6
CN=C1SC(=Cc2c(OC)cc(OC)cc2OC)C(=O)N1C | 2.3 | 2.1
CCCn1c(C)cc(C(=O)CSc2n[nH]c(=O)n2CCC)c1C | 3.9 | 2.8
CCc1c(C)nn(-c2ccc(C(=O)NC(C)(Cc3ccccc3)C(=O)OC)cc2)c1C (stereo not drawn) | -6.7 | -9.0
CCc1cccc(NC(=O)N(CCOC)Cc2cccc(OS(=O)(=O)c3ccc(F)cc3)c2)c1 | -9.6 | -11.1
CCc1sc(C(=O)OCc2ccc(C(N)=O)cc2)cc1C | 4.0 | 1.9
c1n[nH]c(SCCNC2CCCNC2)n1 (stereo not drawn) | -3.0 | -4.1
CCCn1c(CN2CCN(C(=O)c3ccco3)CC2)nc2c1c(=O)n(C)c(=O)n2C | -0.3 | 27.9
Cc1nc2c(=O)n(CC(=O)NCc3ccc(F)cc3)nc(-c3ccccc3)c2s1 | 18.6 | 15.8
O=C(O)c1ccccc1N1C(=O)c2cccc3cccc(c23)C1=O | -0.9 | -6.1
CCOc1ccc(CN(C)CN2C(=O)CC2(C)C)cc1 | 0.0 | -2.0
CCCCOc1ccc(C(=O)Nc2c(-c3ccc(OC)cc3)nc3ccc(C)cn23)cc1 | -11.7 | -9.6
O=c1c2c3nc4ccccc4nc3n(Cc3ccco3)c2ncn1Cc1ccco1 | -3.6 | -4.7
COCCN(CC(=O)N(Cc1cccn1C)C1CC1)C(=O)c1ccc(Br)cc1 | -3.1 | 4.8
Cc1ccc(CN2CCN(Cc3nc(C(C)C)cs3)CC2CCO)o1 (stereo not drawn) | 4.1 | -3.4
Cc1ccccc1CSc1nnc(CNC(=O)Nc2ccc(F)c(F)c2)n1-c1cc(Cl)ccc1Cl | 18.4 | 16.8
CCOC(=O)C1(CCOc2ccccc2)CCN(Cc2cc(OC)c3c(c2)OCO3)CC1 | -7.4 | -12.5
COCc1cc(CNC(=O)c2cc(C)nc3cc(F)ccc23)[nH]n1 | 0.5 | -0.3
O=c1[nH]c2nc(C(F)(F)F)cc(-c3cccs3)c2c2ccccc12 | -2.1 | -5.2
CCOC(=O)CCc1c(C)nc2ncnn2c1N1CCN(C(=O)c2cccc(C#N)c2)CC1 | 26.9 | 12.1
c1cnc(SCc2cccnc2)nc1 | -15.7 | -23.7
COCCN(Cc1ccc(OC)cc1)c1c(C)nc2ccc(C(=O)Nc3ccc(OC)c(OC)c3)cn12 | -5.6 | -9.5
CCC(C)N(Cc1ccc(OS(C)(=O)=O)cc1)C(=O)Nc1ccccc1Br (stereo not drawn) | 0.1 | 7.2
CN1C(=O)CC(CC(=O)N2CC3CC4CC(C3)CC2C4)(c2ccc(-c3ccccc3)cc2)C1=O (stereo not drawn) | 9.7 | -0.9
Cc1nn(CC(=O)Nc2sc3c(c2C#N)CCCCC3)c(C)c1[N+](=O)[O-] | -0.4 | -3.1
O=C(NCCOCC(F)(F)C(F)F)c1cc(F)c(F)cc1Cl | -14.0 | -20.7
CCCn1cnnc1CNC(=O)C1CCC(=O)N(C2CCCCCC2)C1 (stereo not drawn) | 4.1 | 1.2
CCN(CC)C1CCN(C(=O)c2cc(COc3ccc(F)c(F)c3)on2)C1 (stereo not drawn) | -3.6 | -5.7
O=C(NC1(c2ccccc2)CCCC[C@H]1O)c1csc(=Nc2ccccc2)n1Cc1cccs1 (stereo partly drawn) | 4.8 | 6.1
Cc1csc(NC(=O)CSc2nc(=O)n(CCN(C)C)c3c2CCCC3)n1 | -2.6 | 0.3
COc1ccc(CN2CCN(Cc3nc4cc(Cl)ccc4c(=O)[nH]3)CC2)cc1OC | 11.6 | 11.6
CCCNC(=O)Cn1nc(-c2cccs2)c2sc(N3CCCC3)nc2c1=O | -3.8 | -7.6
COc1ccc(NC(=O)Nc2cccc3[nH]c([C@@H]4O[C@H](CO)[C@@H](O)[C@H](O)[C@H]4O)nc23)cc1OC1CCCC1 | 8.1 | 11.7
COc1ccccc1CNC(=O)C1(C)CCN1C(=O)c1cccc(F)c1 (stereo not drawn) | 3.5 | 1.4

Continuation.
SMILES | NPYLR7 ag | NPYLR7 ag max-min
Cc1cccc(NC(=O)CSc2nc(=O)n(CCCN3CCOCC3)c3c2CCCC3)c1C | -0.6 | 0.4
CC(OC(=O)C1COCCO1)C(=O)N1c2ccccc2Sc2ccccc21 (stereo not drawn) | 3.0 | 2.9
O=C(Nc1ccc(OC(F)F)c(Cl)c1)NC1CCN(C(=O)C2CC2)CC1 | -3.0 | -4.0
O=C(c1ccc2c(=O)nc3c(-c4ccccc4)n[nH]n3c2c1)N1CCN(c2ccccc2F)CC1 | -3.4 | -2.8
C#CCOc1ccc(C2CC(=O)Nc3c2c(C)nn3-c2ccc(N3CCCCC3)nn2)cc1 (stereo not drawn) | -4.5 | -6.7
Cc1ccc2cc(CN(C)Cc3nncn3C(C)C)c(=O)[nH]c2c1 | 9.1 | 6.4
O=C1C(=Cc2c(NCCCO)nc3ccccn3c2=O)SC(=S)N1Cc1ccccc1 | 2.9 | 3.2
C=CCNC(=O)c1ccccc1N1CCC(NS(=O)(=O)c2ccccc2)CC1 | 0.4 | 8.1
CC(C)c1nnsc1CNC(=O)C1Cc2ccccc2CN1C (stereo not drawn) | 6.4 | 5.1
Cc1cccc(OCc2ccc(-c3nc(C#N)c(NCc4cccnc4)o3)o2)c1 | 2.0 | 39.7
OCc1c(O)cnc2ccccc12 | 3.8 | 2.5
Cc1ccccc1-n1c(SCc2ccc(C(=O)O)cc2)nnc1-c1ccccc1Cl | -11.4 | -6.9
O=C(Nc1cccnc1-c1ccc2c(c1)OCO2)C1CC1 | 12.3 | 10.3
Cc1ccc(C)c(COc2cc(C(=O)O)ccc2C)c1 | 5.1 | 2.2
COc1cccc(C2CC(c3cccs3)=NN2C(=O)CN2CCCC2)c1OC (stereo not drawn) | -1.9 | 0.0
Cc1cn2c3c(=O)n(C)c(=O)n(C)c3nc2n1-c1ccc(C(F)(F)F)cc1 | -2.8 | 27.9
CCOC(=O)C1(CCOC)CCN(Cc2ccncc2)CC1 | 12.3 | 10.7
CCCNC(=O)N1CCc2cc(OC)c(OC)cc2C1C(CC)NC(=O)CC(C)C (stereo not drawn) | 2.3 | 10.4
Fc1ccc(CSc2ncnc3c2nnn3Cc2ccc(F)cc2)cc1 | 23.2 | 24.2
N#Cc1nc(-c2ccc(S(=O)(=O)N3CCCCCC3)cc2)oc1NCc1ccc2c(c1)OCO2 | -0.9 | 7.3
O=C(O)c1cc(Br)cc(S(=O)(=O)NCc2ccccc2)c1 | -0.2 | -1.7
CCS(=O)(=O)N1CCCN(c2nc(Cc3ccccc3)nc3onc(-c4ccc(C(C)(C)C)cc4)c23)CC1 | 22.4 | 13.9
COc1cc2c(cc1OC)C(CNC(=O)c1ccccc1)N(C(=O)Nc1cccc(C)c1)CC2 (stereo not drawn) | 8.6 | 19.3
Cn1c(=O)c2c(SCCO)nc(-c3ccccc3Cl)nc2n(C)c1=O | -6.0 | -8.9
CN=c1scc(-c2ccccc2)n1N=Cc1ccccc1Br | 4.5 | 0.0
Cc1ncc(CN2CCC(N3CCC(C(=O)NCc4ccccn4)CC3)CC2)s1 | 0.1 | -2.5
O=C(NCCNC(=O)C(F)F)C(F)F | -8.0 | -13.0
CCCOc1ccc(Cn2c(=O)oc3ccc(C)cc32)cc1 | -2.7 | 0.3
COC(=O)c1ccc(Cn2c(C)c(C(=O)NCc3ccc(C(C)C)cc3)sc2=O)o1 | 0.1 | -2.9
CCOC(=O)CCC(=O)N1CCN(C(C(=O)N2CCOCC2)C2CCCC2)CC1 (stereo not drawn) | -5.4 | -4.2
CCN(CC)C(=O)C(C)N(C#N)c1nc(N(C)C)nc(N(C)C)n1 (stereo not drawn) | 2.4 | -0.8
COc1ccc(-n2[nH]c(C(C)C)c(C3=C(N(C)C4CCCCC4)C(=O)N(c4ccccc4F)C3=O)c2=O)cc1 | -0.9 | 5.9
Cc1c(-c2c(-c3ccccc3)ncn2Cc2noc(-c3ccco3)n2)cnn1C | -1.8 | -5.2
O=C(CCC1CCN(CC2CC=CCC2)CC1)NCc1ccc(F)cc1 (stereo not drawn) | -0.4 | -5.2
COc1c(F)cc(NS(=O)(=O)c2cc(Cl)c(F)c(C(=O)O)c2)cc1F | 10.6 | 8.7
COc1cc(/C=C(/C#N)c2ccccn2)ccc1OCC(=O)N1CCCC1 | 14.6 | 5.9
COCc1c(C(=O)N(C)C(C)c2ccon2)cnn1-c1ncc2c(n1)-c1ccccc1CCC2 (stereo not drawn) | 12.8 | 9.8
CCOC(=O)C1(Cc2ccccc2C)CCCN(C(=O)c2cc(CC)nn2C)C1 (stereo not drawn) | 0.7 | -3.1
CCOC(=O)C1(CCCc2ccccc2)CCN(C(=O)c2n[nH]c3ccccc23)CC1 | 9.4 | 2.8
Cc1c(C(=O)O)sc(=S)n1C | 6.5 | 5.6
COCc1cc(C)nc(N/N=C\c2cc(Br)cc(Br)c2O)c1C#N | -0.7 | 7.5

These rows are one share of the data. The share of hits here may be higher or lower than overall.
